# UCH37 DUB inh – human UCH37 deubiquitinating enzyme inhibition. Q9Y5K5. purified proteasome/UCH37, Ub-AMC cleavage fluorescence. inhibition, % (concentration not given with the values). 0.33% of 330,000 active;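 active means mean of two replicates above 20%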;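 further: 0% = compound-free wells with enzyme and 100% = wells lacking proteasome; stock transfer was 100 nL into about 20 µL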
#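 Material: Human UCH37 enzyme supplied as purified proteasome complex | Schedule: 30 min compound-proteasome preincubation then 25 min substrate reaction, room temperature | Detection: AMC fluorescence from Ub-AMC cleavage, excitation 355 nm, emission 460 nm | Benchmarks: Wells without proteasome as full block, compound-free enzyme plus substrate as uninhibited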
# ALR H2O2 inh – blocks human ALR sulfhydryl oxidase activity; P55789; purified ALR, DTT oxidation, H2O2 HRP-luminol luminescence; inhibition, % (concentration not given with the values); 3.8% of 290,000 active;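 active means mean and each replicate at 75% or more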;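 further: stock transfer was 7.5 nL into about 7.5 µL; 0% = neutral wells and 100% = wells with inactivated enzyme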
# Target sequence (P55789 whole entry, looked up): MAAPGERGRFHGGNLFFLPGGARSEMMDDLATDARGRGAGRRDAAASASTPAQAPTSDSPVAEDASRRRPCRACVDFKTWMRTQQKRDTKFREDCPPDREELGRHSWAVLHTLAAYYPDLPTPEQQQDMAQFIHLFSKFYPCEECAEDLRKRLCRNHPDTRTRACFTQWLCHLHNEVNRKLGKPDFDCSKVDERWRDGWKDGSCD
# HNF4A DNA FP – change in binding of human HNF4 alpha to DNA; P41235; HNF4a-FITC DNA binding, fluorescence polarization, 1 h; activity change, % at 10 µM; 0.3% of 360,000 active; AID 1224865; in the data active means activity change above about 30%, passing the limit was not always enough;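 further: controls were the assay level and a saturating level of protein; the project sought stronger binding though the title names inhibitors; some compounds called inactive have numbers as strong as hits; positive values seem to mean higher polarization but the record does not say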
# Target sequence (P41235 whole entry, looked up): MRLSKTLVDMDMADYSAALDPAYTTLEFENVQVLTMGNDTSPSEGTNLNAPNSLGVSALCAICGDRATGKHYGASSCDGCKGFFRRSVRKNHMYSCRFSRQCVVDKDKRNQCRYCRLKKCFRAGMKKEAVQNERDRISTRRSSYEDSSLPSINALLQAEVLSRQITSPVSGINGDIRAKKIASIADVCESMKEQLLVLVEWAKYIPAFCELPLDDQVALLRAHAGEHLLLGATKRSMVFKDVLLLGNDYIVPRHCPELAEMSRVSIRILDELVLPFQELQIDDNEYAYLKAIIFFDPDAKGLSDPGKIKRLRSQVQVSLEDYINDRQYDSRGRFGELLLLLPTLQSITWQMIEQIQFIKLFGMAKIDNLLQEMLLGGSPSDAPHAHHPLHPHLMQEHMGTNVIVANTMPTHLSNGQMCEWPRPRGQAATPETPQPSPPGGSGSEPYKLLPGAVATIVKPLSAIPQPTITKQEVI
# E coli growth – inhibitors of Escherichia coli growth. OD600, 23 h; active compounds read low. OD600 absorbance (test concentration not listed). 0.21% of 330,000 active. AID 1053175;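 active means OD600 absorbance below the run mean of sample wells minus 3.6 SD, in any replicate, cut at about 0.56 in these data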;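 further: stock transfer was 300 nL into about 60 µL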
# rRNA inh HTS – inhibitors of bacterial rRNA selective over humanized ribosomes; E. coli WT GFP vs humanized-ribosome RFP mutants, fluorescence, 24 h; active compounds read low; DMSO median 0, no signal -100; GFP signal change (wild-type ribosome), % (concentration not given with the values); 1.6% of 350,000 active;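 active means significant combined selectivity score with lowered wild-type GFP, culture density cut under 30%, mutant RFP and density less affected; inactive means any of these conditions unmet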; further: one replicate is shown; some compounds called inactive have numbers as strong as hits
# Beta2AR agonist – human beta-2 adrenergic receptor agonism by FAP; Am2.2-beta2AR cells, FAP receptor internalization, flow cytometry; reference of the scale not given here; response, % (test concentration not listed); AID 504454; 0.43% of 340,000 active; P07550;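 active means response above a set limit, near 3 SD of response in nonfluorescent compounds, cut at about 42% in these data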;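 further: stock transfer was 100 nL into about 11 µL; a reference agonist was the positive control; negative values mostly stem from fluorescent compounds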
# FGF22 binding – shifts melting point of recombinant human FGF22. AID 651658. recombinant FGF22 thermal shift, SYPRO orange fluorescence; percent of sucrose octasulfate shift, DMSO zero. calls only at 9.99 µM. Q9HCT0. 1.5% of 340,000 active;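 active means melting point raised past a set limit in the mean and every replicate; three in four hits are not shown here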
# Target sequence (Q9HCT0 whole entry, looked up): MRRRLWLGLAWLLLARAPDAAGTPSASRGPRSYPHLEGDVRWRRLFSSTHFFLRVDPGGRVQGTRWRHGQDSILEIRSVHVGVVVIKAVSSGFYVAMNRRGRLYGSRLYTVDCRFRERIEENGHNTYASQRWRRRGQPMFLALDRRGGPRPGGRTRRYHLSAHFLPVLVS
# rRNA inh HTS OD600 – further read-out of rRNA inh HTS, marked with its call; OD600 change, %; measured here: OD600 growth;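 optical density of the mix in the first replicate; 0 = DMSO median and -100 = no signal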
# rRNA inh HTS RFP – further read-out of rRNA inh HTS, marked with its call; RFP signal change, %; measured here: RFP humanized mutant strains;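 first replicate; 0 = DMSO median and -100 = no signal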
# Active calls of the source: *; i = inactive; x = no result given. These rows are one share of the data; rates above refer to the full screens.
# Results follow in this order: UCH37 DUB inh	ALR H2O2 inh	HNF4A DNA FP	E coli growth	rRNA inh HTS	rRNA inh HTS OD600	rRNA inh HTS RFP	Beta2AR agonist	FGF22 binding
CCN(CC)S(=O)(=O)c1cccc(NC(=O)COC(=O)C2CC3C=CC2C3)c1 (stereo not drawn)
→ 2.1	x	-0.7	0.706	-13.8	-10.9	6.9	2.8	i
O=C(CSc1nc2ccccc2c(=O)n1CCCN1CCOCC1)c1c[nH]c2ccccc12
→ -1.0	11.1	-7.5	0.668	-23.6	-20.9	2.7	4.8	i
CCCCOCCCNC(=O)N[C@H](C(=O)O)C(C)CC (stereo partly drawn)
→ 1.4	1.4	-3.8	0.7	6.6	24.7	21.8	2.3	i
O=C(NCc1cccnc1)c1ccc(NS(=O)(=O)c2ccccc2)cc1
→ 1.9	0.2	0.3	0.72	16.4	13.5	2.8	-3.0	i
O=S(=O)(Nc1ccc2cn[nH]c2c1)c1ccc(C(F)(F)F)cc1
→ -2.8	x	-0.5	0.676	-5.3	-18.0	-1.1	10.0	i
CC(=O)N1CCc2cc(S(=O)(=O)N3CCOCC3)ccc21
→ 1.6	-3.9	-0.1	0.719	x	x	x	2.3	x
Cc1sc2ncnc(NCC(c3ccco3)N3CCCC3)c2c1C (stereo not drawn)
→ -0.3	0.7	-7.3	0.748	x	x	x	-14.0	x
COc1ccc(CNC(=O)Cc2cn(C)c3ccccc23)c(OC)c1
→ 2.9	-0.4	0.8	0.677	-24.4*	-13.9*	-0.1*	-5.0	i
COCCOC(=O)C1=C(C)Nc2nc(C)nn2C1c1ccccc1 (stereo not drawn)
→ 1.6	6.3	4.0	0.627	x	x	x	7.1	x
COCCNS(=O)(=O)c1cccc2cccnc12
→ 1.0	-95.2	1.0	0.762	2.1	5.7	8.7	2.7	i
O=C(c1ccccc1)N1N=C(c2ccccc2)CC1c1ccccc1 (stereo not drawn)
→ 1.1	-0.4	-1.9	0.642	1.4	5.0	0.7	-7.9	i
COc1cc(/C=C2\SC(=Nc3ccccc3)N(Cc3ccco3)C2=O)ccc1OC(C)C(=O)O (stereo not drawn)
→ 12.5	12.6	-4.1	0.68	-30.8	-32.5	0.7	13.1	i
Cc1cc(C(=O)OC(C(=O)Nc2ccc(C)c(Cl)c2)c2ccccc2)c(C)o1 (stereo not drawn)
→ 2.1	-16.2	-1.9	0.708	x	x	x	0.8	x
CN1C(=S)SC2CS(=O)(=O)CC21C (stereo not drawn)
→ x	-7.6	4.5	x	11.8	-7.1	-1.8	-4.9	i
CCNC1CCS(=O)(=O)C1 (stereo not drawn)
→ -0.8	-2.1	-1.0	0.616	7.0	12.8	-0.8	2.9	i
Cc1ccc(-c2cccc([C@H]3[C@@H]4C=CC[C@@H](C)[C@@H]4C(=O)N3Cc3ccccc3)c2)cc1
→ 1.6	x	0.5	0.762	16.1	15.7	1.6	2.8	i
O=S(=O)(c1cccs1)N1CN(C2CCCC2)c2nc3ccccc3nc21
→ -2.9	0.3	x	0.682	-23.9	-20.0	4.2	x	i
O=C(CSc1n[nH]c(-c2ccncc2)n1)Nc1ccccc1Cl
→ 1.1	x	2.5	0.663	1.1	-2.5	-2.2	2.2	i
O=C(COC(=O)c1cccnc1SC(F)F)NC1CC1
→ 0.4	x	3.5	0.67	0.9	-1.1	-0.7	1.6	i
O=C(NCc1cc(Cl)cc(Cl)c1)c1ccc2nc(COCCO)[nH]c2c1
→ x	x	-3.4	x	-13.1	-15.8	-2.7	x	i
COc1ccc(-c2nc3c(C)cc(Br)cn3c2Cc2cccc(F)c2)cc1OC
→ x	x	4.0	x	-10.2	-14.5	-2.6	x	i
CCOC(=O)CSC1=Nc2ccccc2C2=NC(CC(=O)NCc3ccccc3)C(=O)N12 (stereo not drawn)
→ -107.5	98.1*	2.1	0.686	x	x	x	-9.9	x
COc1ccccc1NC(=O)CSc1nnc(Cn2c(=O)sc3ccccc32)n1C
→ 1.7	-13.5	0.6	0.757	2.2	8.3	-1.8	-3.5	i
COC(=O)CSc1nnc(CNS(=O)(=O)c2ccc(Br)cc2)n1C
→ 6.0	-3.1	-1.6	0.685	4.1	9.0	0.7	-6.8	i
O=c1c([N+](=O)[O-])c[nH]c2ccccc12
→ x	-12.9	-2.4	x	11.8	13.0	9.6	3.2	i
CCOc1ccc(C(=O)NC(C(=O)NCc2ccccc2OC)C(C)C)cc1 (stereo not drawn)
→ 3.8	-20.2	2.8	0.678	6.3	11.6	-4.9	2.3	i
Cc1cc(C)n(-c2ccc(C(=O)OCn3nnc4ccccc4c3=O)cc2)n1
→ 3.7	-3.7	-1.9	0.747	-20.1	-47.2	-7.3	-2.7	x
O=C1CCN(Cc2ccccc2)CCN1[C@H](CO)c1ccccc1
→ -0.3	-6.0	-3.4	x	x	x	x	7.0	x
Cc1cc(C)c(S(=O)(=O)N2CCCC(C(=O)NC3CCCC3)C2)c(C)c1 (stereo not drawn)
→ 0.8	x	0.3	0.643	-0.4	-24.9	-1.0	-3.3	i
CCCCNC(=S)NNC(=O)c1cc(C2CC2)nc2ccccc12
→ 0.9	45.8	0.2	0.739	0.2	4.4	0.5	-2.9	i
CC1=C(C(=O)N2CCOCC2)C(c2cc(C)ccc2C)NC(=S)N1 (stereo not drawn)
→ 2.8	3.9	-1.4	0.672	9.9	1.8	1.0	-2.0	i
COc1ccc(CNC(=O)N2CCN(c3ccccc3OC)CC2)cc1
→ 4.2	0.5	-1.5	0.647	8.3	16.7	-0.3	-5.1	i
CCCCC(CC)C(=O)N1CCN(C(=O)c2ccco2)CC1 (stereo not drawn)
→ 7.7	x	-3.2	0.665	21.2	23.5	0.3	-6.1	i
CSc1c(C#N)c(N)nc2sc(C(=O)c3ccc(Cl)c(Cl)c3)c(N)c12
→ 7.3	-1.6	x	0.649	x	x	x	x	x
COCCCNC(=O)c1ccc([N+](=O)[O-])c(Cl)c1
→ 4.9	x	2.9	0.701	x	x	x	3.5	x
Cc1nc(C(=O)Nc2ccccc2)sc1C(=O)Nc1ccccc1
→ 4.8	48.2	-3.1	0.62	7.6	13.9	2.8	9.6	i
CC(C)CC(=O)Nc1ccc(C(=O)Cn2c(=O)oc3ccccc32)cc1
→ 1.5	-4.5	1.5	0.678	7.9	15.9	1.8	-6.6	i
Cc1nc(NCC2CCCO2)c2nnn(Cc3ccccc3)c2n1 (stereo not drawn)
→ 2.5	-2.0	0.5	0.689	-17.5*	-2.3*	6.3*	-6.3	i
Cc1c(OCC(=O)NCCN2CCOCC2)ccc2c(-c3ccccc3)cc(=O)oc12
→ -16.9	-3.7	-1.4	0.682	9.5	17.1	0.7	3.5	i
COc1ccc(C2c3[nH]c4ccccc4c3CCN2C(=O)c2ccc(=O)n(C)n2)c(F)c1 (stereo not drawn)
→ -2.1	0.1	2.0	0.704	-7.2	-17.9	-6.6	-8.1	i
CCC(C)(C)n1nnnc1C(c1ccccn1)N1CCCCC1 (stereo not drawn)
→ 6.4	-10.1	-1.3	0.725	x	x	x	0.3	x
Cc1ccc(-n2c(SCC(=O)O)nc3sc4c(c3c2=O)CCCC4)cc1
→ 3.9	3.4	-11.4	0.672	-31.5	-29.2	-2.6	4.0	x
CCOC(=O)N1CCN(C(=O)c2cccc(OC)c2OC)CC1
→ 1.5	1.4	-1.6	0.704	x	x	x	0.3	x
O=C(OCC(=O)N1CCOCC1)c1ccc(O)cc1
→ 1.6	-2.1	1.1	0.654	9.8	6.7	-0.8	-7.4	i
CCc1noc(C)c1C(=O)NNC(=O)COc1cc(C)ccc1C
→ 4.3	-0.5	2.8	0.668	6.0	9.0	0.5	1.0	i
CSc1nc(C)cc(SCCO)n1
→ 3.7	-2.5	-5.8	0.683	x	x	x	5.3	x
CCc1cccc(NS(=O)(=O)c2ccc3c(c2)oc(=O)n3C)c1
→ 1.6	-31.6	-2.9	0.62	x	x	x	-13.9	x
Cc1onc(-c2ccccc2)c1C(=O)Nc1ccc(Cl)cn1
→ 1.4	x	-0.1	0.708	-15.1	-6.0	5.4	-12.0	i
CCCNC(=O)c1ccc(N2CCC3(CC2)CC(c2cccc(Br)c2)=NO3)c(NC(=O)c2ccco2)c1
→ 3.8	6.4	3.5	0.738	-3.5	4.1	1.0	3.6	i
CCOC(=O)CC1C(=O)NCCN1S(=O)(=O)c1ccc(Cl)c(Cl)c1 (stereo not drawn)
→ 1.2	0.7	0.4	0.717	x	x	x	5.1	x
OC(CN(Cc1ccccc1)Cc1ccccc1)c1ccccc1 (stereo not drawn)
→ 2.7	x	1.7	0.684	-54.6	-78.8	-13.8	0.4	x
N#C/C(=C\c1cn[nH]c1-c1ccccc1Br)C(=O)O
→ 0.3	-11.4	-0.1	0.686	9.8	4.2	0.4	3.9	i
CCCC1CCC(=NNC(=S)NCCc2ccccc2)CC1 (stereo not drawn)
→ 3.2	0.5	-0.1	0.698	1.6	2.3	2.0	-1.0	i
CCOC(=O)c1c(S(=O)(=O)NCC(=O)Nc2ccc(F)cc2F)c(C)n(C)c1C
→ 0.2	-3.5	-1.7	0.616	7.7	7.8	3.7	0.8	i
COC(=O)C1(Cc2cc(-c3cccnc3)no2)CCN(C(=O)OC(C)(C)C)CC1
→ -0.7	-8.0	0.5	x	-13.2	-11.1	-3.6	-4.1	i
COc1cccc(COC(=O)C2CCN(C(=O)c3ccccc3C)CC2)c1OC
→ 5.6	-8.9	0.2	0.644	2.0	-6.2	1.2	0.1	i
CC(C)(C)C(=O)Nc1nnc(SCC(=O)NC2CCCC2)s1
→ 3.4	3.1	1.3	0.676	-1.5	3.6	-1.5	1.2	i
COc1ccc2c(c1)CCc1sc(NC(=O)c3ccc(C)cc3)nc1-2
→ -0.3	-24.8	1.3	0.696	x	x	x	0.8	x
C=CCNC(=O)C(=O)Nc1ccc2c(c1)N(S(=O)(=O)c1cccs1)CCC2
→ 1.5	x	0.8	0.702	1.2	-11.4	0.5	-5.9	i
Cc1ccc(CNC(=O)c2ccccc2NC(=O)CN2CCN(C)CC2)cc1
→ 1.3	-2.6	1.9	0.641	1.4	1.0	-1.0	6.1	i

# (next part)
# Results follow in this order: UCH37 DUB inh	ALR H2O2 inh	HNF4A DNA FP	E coli growth	rRNA inh HTS	rRNA inh HTS OD600	rRNA inh HTS RFP	Beta2AR agonist	FGF22 binding
Cc1cccc(C(=O)OCC(=O)NC(=O)NCc2ccccc2)c1
→ 1.1	0.9	1.4	0.66	5.2	6.0	-1.7	-5.2	i
COC(=O)c1c(-c2ccc(C)cc2)csc1N
→ 1.9	97.8*	-4.8	0.71	-1.1	-0.1	43.8	14.8	x
CC(=O)N1CCN(S(=O)(=O)c2ccc(C)c([N+](=O)[O-])c2)C1C(C)C (stereo not drawn)
→ 2.6	-23.2	1.7	0.685	6.2	13.4	2.6	-2.2	i
CC1CCN(S(=O)(=O)c2ccc(C(=O)N3CCCCC3C(=O)O)cc2)CC1 (stereo not drawn)
→ 0.6	-7.1	1.5	0.64	11.3	15.8	1.6	-1.0	i
CNc1ccc(Oc2c(F)c(F)nc(F)c2F)cc1
→ 3.4	-9.2	4.8	0.647	-4.0	7.7	-10.4	4.7	i
Cc1ccc(S(=O)(=O)NCCc2ccncc2)cc1C
→ 0.8	2.8	3.1	0.666	2.1	8.5	2.2	5.5	i
FC(F)(F)c1nc2nc(Cl)c(Cl)nc2[nH]1
→ x	x	-1.2	x	1.2	6.7	-2.4	x	i
CCOc1ccc(-c2nnc3ccc(SC)nn23)cc1
→ -23.5	-6.7	3.6	0.686	x	x	x	-9.3	x
CN(C)CCCNCCNC(=O)/C=N\O
→ x	-26.1	0.8	x	x	x	x	5.1	x
O=C(N/N=C\c1ccc(F)cc1)c1cc(OCC(F)(F)F)ccc1OCC(F)(F)F
→ x	-5.3	0.0	x	x	x	x	-16.4	x
